# LANA-nucl inh: inhibitors of KSHV LANA binding to nucleosomes. FITC-LANA1-23 / chicken nucleosome fluorescence polarization; stronger effect = lower value. z-score (concentration not given with the values). 51,000 compounds, 0.3% hits. AID 720717;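 active = both repeat wells score below -2 in polarization z-score versus plate sample wells, excluding overly bright wells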;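 also: 100 nL library stock added to about 30 µL; numbers are from one replicate; some results filed as inactive read as strong as hits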
#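 Material: Purified chicken nucleosomes with FITC-labelled LANA N-terminal peptide (1-23) | Reagent: 50 nM FITC-LANA1-23 probe | Medium: TEN-BT buffer, pH 7.5 | Times: 10–45 min incubation at room temperature | Detection: Fluorescence polarization | Replication: Duplicates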
# Ab BasE inh: blocks the Acinetobacter baumannii siderophore enzyme BasE | purified BasE, fluorescence polarization binding displacement | 84,000 compounds, 0.1% hits | inhibition, % (test concentration not listed);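 active = both replicates above 25% with normal brightness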;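 also: 0% = negative plate control signal and 100% = positive plate control signal; stock transfer was 100 nL into about 30 µL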
# Numbers without * were called inactive; x = not tested or not shown; & = joins results of further samples. An excerpt; rates above refer to the full screens.
SMILES,LANA-nucl inh,Ab BasE inh
Cc1cc(C)nc(Nc2n[nH]c(COc3ccc4ccccc4c3)n2)n1,0.26,-1.0
CN1CCC(N(C)C(=O)c2cc(=O)c3ccccc3o2)CC1,x,-0.8
CSC(=O)CNC1(Cc2ccc(O)cc2)CCCCC1,-0.37,0.8
O=C(NCC12CC3CC(CC(C3)C1)C2)c1cc(-c2ccccc2O)no1,-0.14,0.9
O=C(NCCO)N1c2ccccc2Sc2ccccc21,x,1.8
CCN(CC)C(=O)CSc1nc2cccnc2n1-c1ccccc1OC,0.42,1.1
Cc1nnc(NCc2ccc(F)cc2)c2c1nnn2Cc1ccc(F)cc1,-0.15,1.3
O=c1oc(-c2cccs2)nn1CN1CCN(Cc2cccs2)CC1,x,1.7
O=S(=O)(c1ccc(S(=O)(=O)N2CCC3(CC2)OCCO3)cc1)N1CCCC1,1.1,-0.7
COc1cc(Cn2c(N)c(C#N)c3nc4ccccc4nc32)cc(OC)c1OC,-0.43,-0.6
Oc1ccccc1C1=Nc2ccccc2N=C(c2ccco2)C1,-1.4,1.0
CCSc1nnc(Nc2ccccc2)s1,x,2.8
NC(=O)c1ccccn1,x,-2.0
Cc1ccc(-n2ncc(C(=O)NCCN3CCCCC3)c2C2CCN(C(=O)OC(C)(C)C)CC2)cc1,x,-2.3
CC1(C)CC(=O)C(C=Nc2ccccc2)=C(O)C1,0.63,1.5
CCn1c(CSc2nc3ccccc3s2)nnc1SCC(=O)C(C)(C)C,x,-3.5
Cc1ccc(S(=O)(=O)NC(=O)N(C)C2CCCCC2)cc1,x,-3.1
CN=c1scc(C)n1/N=C/C1CCCCC1,x,0.0
Cn1cccc1Cc1nnc(SCC(=O)N2CCc3ccccc32)n1Cc1ccccc1,0.28,4.2
Cc1cc(C)c2c(c1C#N)CC(C)(C)C2=O,-0.017,0.9
CC(=O)N1CCCc2ccc(NC(=O)Cc3ccc(F)cc3)cc21,0.36,2.8
Cc1c(NC2=C(C(=O)c3ccccc3)N(C)S(=O)(=O)c3ccccc32)c(=O)n(-c2ccccc2)n1C,0.16,1.8
Cc1ccc2[nH]c3c(c2c1)CCCC3=NCCO,-0.89,-3.2
Cc1cc(C)n(CC(=O)Nc2nc(-c3ccccc3)cs2)n1,-0.65,0.6
COc1ccc(C(=O)n2nccc2-c2ccc(-c3cccs3)s2)cc1,-0.65,3.8

# Next part:
SMILES,LANA-nucl inh,Ab BasE inh
c1ccc(OCCN2CCNCC2)cc1,0.93,-2.2
COC(=O)c1sccc1NC(=S)NCCN1CCNC1=O,0.19,1.4
CCN(CC)C(=O)COc1ccc(OC)cc1,0.83,0.6
Cc1nc2sccn2c1-c1nc(-c2ccc(Br)o2)c(C(=O)c2ccc3c(c2)OCCO3)s1,x,-0.9
COCCn1c(N)c(C(=O)NCc2ccccc2)c2nc3ccccc3nc21,x,-5.4
Cc1ccc(Cn2c(SC(C)C(N)=O)nc3ccccc3c2=O)cc1 (configuration not stated),x,0.6
CC1CN(C(=O)C(C)Sc2nc(-c3ccccc3)cc(C(F)(F)F)n2)CC(C)O1 (configuration not stated),-0.087,-2.5
NC(=O)CSc1nnc2scc(-c3ccc(Cl)cc3)n12,0.019,3.6
CCOc1ccc(C2=NCCNC3=C2C(c2ccccc2)N(c2ccccc2)C3=O)cc1 (configuration not stated),x,0.4
CN(C)c1ccc(NC(=O)Nc2cccs2)cc1,-0.76,x
O=C(CC(Sc1ccccc1C(=O)O)c1ccc(F)cc1)c1ccc(F)cc1 (configuration not stated),x,0.9
Cc1c(/C=C/C(=O)Oc2ccc(C#N)cc2)sc2ccccc12,x,0.4
CCC(=N)C1=C(O)CC(C)(C)CC1=O,x,3.7
CCC(=O)NC1(C(F)(F)F)N=C(c2ccccc2)N(C2CCCC2)C1=O (configuration not stated),-0.37,0.4
O=C(CSc1ccccn1)c1ccc(Cl)cc1,-0.049,0.6
Nc1c(-c2ccccc2)cnn1-c1ccccc1,-0.24,x
O=c1[nH]c2c(c(=O)[nH]1)CCC2,x,3.1
CCc1cc2c(NCCN3CCCCC3)ncnc2s1,-0.16,-3.7
COC(=O)c1c2c(n3cc4ccccc4cc13)C(=O)c1ccccc1C2=O,x,-5.0
Oc1ccccc1C1NN=C(c2ccccc2)S1 (configuration not stated),-0.89,-0.5
N#Cc1cccc(NC(=O)COC(=O)C2=NNC(=O)CC2)c1,x,-0.7
CC1CCc2cc(F)ccc2N1C(=O)c1cccs1 (configuration not stated),1,-0.7
COc1ccccc1NC(=O)c1c(C)nc(SCc2ccccc2)c(C#N)c1-c1ccc(C)o1,x,-0.6
COc1ccc(CNc2nc(NCc3ccc(OC)cc3)n(S(C)(=O)=O)n2)cc1,-0.28,1.7
O=C(O)c1ccc(N=Cc2cn(-c3ccccc3)nc2-c2cccs2)cc1,x,-1.6

# Molecules listed so far containing a furan ring, fused or not, in the order listed:
SMILES,LANA-nucl inh,Ab BasE inh
Oc1ccccc1C1=Nc2ccccc2N=C(c2ccco2)C1,-1.4,1.0
Cc1nc2sccn2c1-c1nc(-c2ccc(Br)o2)c(C(=O)c2ccc3c(c2)OCCO3)s1,x,-0.9
COc1ccccc1NC(=O)c1c(C)nc(SCc2ccccc2)c(C#N)c1-c1ccc(C)o1,x,-0.6

# Look-ups from above:
# Reading of NC(=O)c1ccccn1 under Ab BasE inh: -2.0
# Reading of Cc1ccc(-n2ncc(C(=O)NCCN3CCCCC3)c2C2CCN(C(=O)OC(C)(C)C)CC2)cc1 under Ab BasE inh: -2.3

# The results go on.
SMILES,LANA-nucl inh,Ab BasE inh
COc1ccc(/C=C(\C#N)S(=O)(=O)c2ccccc2)cc1CSCc1ccco1,-0.072,0.0
O=c1c2c(nc3cc(-c4ccco4)[nH]n13)CCCC2,1.7,-4.5
CC(C)NC(=S)N/N=C/c1ccco1,-0.66,2.1
Cn1c(=S)[nH]c2cc(C(=O)NC3CCCCCC3)ccc2c1=O,x,1.2
CCCN1C(=O)c2ccccc2NC1c1ccc(Br)cc1 (configuration not stated),-0.97,-1.3
CCN(CC)S(=O)(=O)c1ccc(C(=O)OCC(=O)c2ccc3c(c2)OCCO3)cc1,x,0.4
N=C1C(c2nc3ccccc3s2)=C(O)CN1c1ccc(S(N)(=O)=O)cc1,-0.25,-1.0
NC(=S)c1cccnc1,x,1.6
CSc1c(C#N)c(-c2cccs2)nn1C(=O)C(C)(C)C,x,-0.7
CCCCCCCCCCCCCCCCOCC(COP(=O)([O-])OCC[N+](C)(C)C)OC (configuration not stated),0.15,9.1
O=C(c1ccccc1)c1cccc(N=Cc2c(O)[nH]c(=O)[nH]c2=O)c1,x,2.5
C=CCn1c(=S)[nH]c2cc(OCC)c(OCC)cc2c1=O,0.28,-1.0
O=C(CN(Cc1ccccc1F)C(=O)c1ccco1)NCc1ccc(F)cc1,-1.5,-0.3
Cc1ccccc1N1C(=O)CC(SC2=NCCS2)C1=O (configuration not stated),-0.71,1.2
Cc1ccc2nc(NC(=O)C(C)C)sc2c1,0.34,-4.0
CN1C(C(=O)Nc2ccccn2)=C(O)c2ccccc2S1(=O)=O,-0.12&-0.1&-0.39&1.1&-0.61&0.033,4.0&0.5&-2.1
N#CC(=C1CCN(Cc2ccccc2)CC1)c1ccccc1,0.31,2.0
Cc1ccc2c(CC(=O)NCc3ccccc3)coc2c1,x,-0.7
C=Cn1ccnc1P(=NN=Nc1ccc(S(N)(=O)=O)cc1)(N(CC)CC)N(CC)CC,x,-0.7
O=C(Cc1cccs1)NN1CCOCC1,0.5,0.1
O=C(NC1CCCCC1)c1ccc(N2CCCC2=O)cc1,1.1,-1.5
Cc1ccc(C)c(OCc2nnc(SCc3nc4ccccc4s3)o2)c1,x,-6.2
CCN(CC)C(=O)Cn1c2cc(OC)c(OC)cc2c2nc3n(c(=O)c21)CCS3,-0.13,1.1
O=C1C2C3c4ccccc4C(c4ccccc43)C2C(=O)N1CCN1CCCCC1 (configuration not stated),2.6,-0.8
C#CCSc1ncc(C(=O)O)c(C(OC)OC)n1,-0.37,-0.3

# A second format for part of the listing above.
> CCOc1ccc(C2=NCCNC3=C2C(c2ccccc2)N(c2ccccc2)C3=O)cc1 (configuration not stated)
  LANA-nucl inh = x
  Ab BasE inh = 0.4
> Cc1ccc(Cn2c(SC(C)C(N)=O)nc3ccccc3c2=O)cc1 (configuration not stated)
  LANA-nucl inh = x
  Ab BasE inh = 0.6
> O=C(NC1CCCCC1)c1ccc(N2CCCC2=O)cc1
  LANA-nucl inh = 1.1
  Ab BasE inh = -1.5
> Cc1c(NC2=C(C(=O)c3ccccc3)N(C)S(=O)(=O)c3ccccc32)c(=O)n(-c2ccccc2)n1C
  LANA-nucl inh = 0.16
  Ab BasE inh = 1.8

# Following part:
SMILES,LANA-nucl inh,Ab BasE inh
CC(C)NC(=O)Oc1noc2cc(Cl)ccc12,-0.63,4.1
Cc1ccc(-n2nc(C(=O)O)c(C)c(C#N)c2=O)cc1,-0.23,2.0
CCOc1cc(/C=N/NC(N)=S)cc(I)c1O,-0.79,3.9
CCOC(=O)N1CCC(NC(=O)CSCc2nc(-c3ccc(C)cc3)oc2C)CC1,-0.67,1.3
O=C1CC(C(=O)Nc2cccc(C(=O)O)c2)C(c2ccccc2)O1 (configuration not stated),1.7,-2.2
CC(Oc1ccccc1)C(=O)Nc1c(C(=O)N2CCCC2)oc2ccccc12 (configuration not stated),x,1.9
Cc1cc(NNC(=O)Nc2cccc(Cl)c2)nc2c1c(C)nn2C,-0.72,-1.7
O=c1c2ccccc2nnn1CSc1nc2ccccc2c(=O)n1CC1CCCO1 (configuration not stated),x,5.9
CN(C(=O)CSc1nnc2c(Cl)cc(Cl)cn12)C1CCS(=O)(=O)C1 (configuration not stated),x,0.8
CC(C)NC(=S)N1CCN(S(C)(=O)=O)CC1,-0.018,1.2
N/C(Cc1ccc(-c2csnn2)cc1)=N\OC(=O)C1CC1,0.23,-4.0
O=C(Nc1ccccc1)Nc1cccc(-c2nnco2)c1,x,2.1
CCCNc1ncnc2c1cnn2C,-0.54,1.1
CCOc1cc(N2CCOCC2)c(OCC)cc1NC(=O)c1c(C)nn(-c2ccccc2)c1C,x,2.7
c1ccc2c(CNc3ncn[nH]3)cccc2c1,0.53,-0.7
Nc1ncnc2c1ncn2C1O[C@H](COP(=O)(O)O)[C@@H](O)[C@H]1O (some centres not stated),0.078&0.43,-1.0
Cc1ccc2nc(CSc3nnc4ccccn34)cc(=O)n2c1,x,0.2
CNC(=O)N(O)C1N(NC(=O)Nc2ccccc2)C(=S)SC1(C)C (configuration not stated),0.1,-1.3
CN1C(=O)N(C)C2(CC1(C)C)CC(C)(C)N(C)C(=O)N2C,-1.1,-0.3
Cc1ccc(CSc2n[nH]c(=O)n2-c2cccc(Cl)c2)cc1,0.56,1.4
COc1ccc(N2CCN(C(=O)/C=C/c3ccccc3)CC2)cc1,x,1.0
COc1ccccc1NC(=O)O/N=C(\N)c1ccccc1,x,-1.7
Cc1ccc2nc3sc(C(N)=O)c(N)c3cc2c1,0.49,-14
Cc1cc2occ(CC(=O)OCc3c(F)c(F)c(F)c(F)c3F)c2cc1C,x,3.4
Cc1nc(-c2ccccc2)ccc1C(=O)O,x,0.7

# Following part:
SMILES,LANA-nucl inh,Ab BasE inh
Cc1ccnc(Cl)c1N,0.036,45*
CCN(C(=O)Cn1cc(C(F)(F)F)ccc1=O)C1CCS(=O)(=O)C1 (configuration not stated),x,3.7
Cc1c(C(=O)/C(C#N)=C/N(C)C)sc2ccc(Cl)cc12,-0.19,x
Cc1ccc(/C=C/C(=O)N2CCN(C(c3ccccc3)c3ccccc3)CC2)o1,0.66,1.0
O=C1NS(=O)(=O)c2ccc(Cl)cc2Sc2ccccc21,0.077,-0.3
CCCN(Cc1ccc(OC)c(C)c1OC)CC1CC1,0.74,-0.2
CCOC(=O)N1CCN(S(=O)(=O)c2ccc(OC)c(C(=O)N3CCCCC3)c2)CC1,-0.2,0.3
CC1CCC(C(C)C)C(OC(=O)CSc2nnc(N)s2)C1 (configuration not stated),x,0.3
O=C(Nc1ccccn1)C(=NO)C(=O)Nc1ccccn1,-1,5.4
CN1CCC2(CC1)Oc1ccccc1C1CC(c3ccccc3)=NN12 (configuration not stated),x,0.5
O=C(CSc1ncccn1)N(c1ccccc1)C1CCS(=O)(=O)C1 (configuration not stated),x,-0.1
CCNC(=S)N1CCN(c2ccccc2)CC1,0.55,2.9
N#CC(C#N)=NNc1cc(-c2ccccc2)[nH]n1,0.42,2.9
CN(CCc1cn[nH]c1)Cc1nc(-c2ccc(C(F)(F)F)cc2)no1,2.3,0.7
Cc1ccc2[nH]c(-c3ccccc3)c(CN3CCCC3)c(=O)c2c1,x,-2.6
Cc1ccc(-n2nc(-c3cccs3)cc2C(=O)NCC2CCCO2)c(C)c1 (configuration not stated),x,0.4
O=C(CSc1nnnn1-c1ccc(O)cc1)c1c[nH]c(C(=O)N2CCCC2)c1,x,1.6
C=CCN1C(=O)/C(=C\c2ccc(OC(=O)c3ccco3)c(OC)c2)SC1=S,x,2.1
COc1ccc(CCC(=O)Nc2ccc(/C(N)=N/O)cc2)cc1,0.39,-2.1
CC(C)n1c2ccccc2c2n[nH]c(=S)nc21,x,1.1
O=C(OCC(=O)N(C1CCCCC1)C1CCCCC1)c1ccc(N2CCCC2=O)cc1,x,1.8
O=C1NCCN1CCN1C(=O)c2ccccc2NC1c1cccs1 (configuration not stated),-1.3,-1.5
CCN(CC)S(=O)(=O)c1ccc(Nc2ncnc3c2nc2n3CCCCC2)cc1,-0.68,1.9
CC(C)NC(=O)CSc1nnc(-c2cccs2)n1C,x,0.2
Cc1nc2ccc(I)cn2c1/C=N/NCCC#N,x,-1.3
O=C(Nc1ccc(S(=O)(=O)Nc2nccs2)cc1)N1c2ccccc2Sc2ccccc21,x,-2.4
COc1cc(NC(=O)CC(CC(=O)O)c2ccccc2)c(C(=O)O)cc1OC (configuration not stated),-0.9,-0.1
